PrP UTR inh: suppresses PrP 5' UTR mRNA reporter expression; inhibition, % (no concentration beside the values); cell-based PrP 5' UTR mRNA reporter, plate reader; 340,000 tested, 0.35% active;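 active means every replicate at 50% or more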;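 further: 0 = median of the neutral control wells; tested in H4 reporter cells; numbers are from one replicate; inactives centre near -14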
Mtb hypoxia rep: Mtb hypoxia fluorescent reporter inhibition; M. tuberculosis hypoxia-regulated fluorescent reporter, fluorescence; fluorescence inhibition, % (test concentration not listed); 300,000 tested, 0.1% active;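 active means 35 to 45% if threefold the growth effect, above 45% if 1.5-fold the growth effect; inactive means the rest, general growth blockers included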;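 further: wells of about 50 µL received 100 nL stock; 0% = vehicle wells and 100% = reference inhibitor wells; whole bacteria with a GFP reporter of the hypoxia response; strong numbers were not always called active; many hits fall short of the cut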
Sa RN4220 lethal: kills Staphylococcus aureus RN4220; S. aureus RN4220 growth, OD600, 16 h; 330,000 tested, 0.33% active; AID 1259311; inhibition, % (test concentration not listed);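 active means z-score of -3 or lower and OD600 up to 0.18 on both plates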;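 further: plate controls were untreated cells for no effect and reference antibiotic for full effect; stock transfer was 100 nL into about 80 µL; one replicate is shown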
BJeLR viability: BJeLR cell viability loss. BJeLR (HRASV12) viability, CellTiter-Glo ATP luminescence, 48 h; reference of the scale not given here. AID 1554. 300,000 tested, 0.17% active. inhibition, % (test concentration not listed);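 active means replicate mean above 50%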;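 further: 50 nL library stock added to about 25 µL; numbers are from one replicate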
ugtP null kill: kills S. aureus RN4220 lacking UgtP | 330,000 tested, 0.54% active | AID 1259309 | S. aureus RN4220 ugtP deletion, OD600 growth, 16 h; some inactives read as strong as hits | growth inhibition, % (no concentration beside the values);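 active means z-score under -3 and OD600 up to 0.15 on both plates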;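 further: plate controls were untreated wells for no effect and antibiotic for full effect; wells of about 80 µL received 100 nL stock; the first replicate is given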
Autofluor counter: compound fluorescence in toxin protease inhibitor counterscreen | compound autofluorescence counterscreen, microsphere flow cytometry; active compounds read high | 360,000 tested, 3.1% active | fluorescence intensity (concentration not given with the values);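 active means at least 3 SD above the mean of all compounds, about 16000 in these data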;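 further: 100 nL of 1 mM stock went into each well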
Mtb hypoxia rep growth: also measured in Mtb hypoxia rep; calls as there; growth inhibition, %; measured here: M. tuberculosis growth (absorbance);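 0% = vehicle and 100% = reference antibiotic; read after six days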
* marks the source's active call; other numbers are inactive results; x = no result given; & = joins results of further samples.

SMILES	PrP UTR inh	Mtb hypoxia rep	Mtb hypoxia rep growth	Sa RN4220 lethal	BJeLR viability	ugtP null kill	Autofluor counter
O=C(Cn1ncc2c(=O)oc3ccccc3c21)NCCCN1CCCC1=O	-11	x	x	-0.1	-5	-1	6416
O=c1c2ccccc2nc(-c2ccccc2)n1Cc1ccco1	-20	0	1	-0.6	10	2	9635
COc1cccc(CN2CCNC(=O)C2CC(=O)NCCc2cccc(C)n2)c1OC (configuration not stated)	-16	2	-2	3.7	-1	2	2226
Cc1ccc2c(c1)[nH]c1c(N3CCN(Cc4ccccc4)CC3)ncnc12	-10	6	13	12	12	22	10392
CCC(C)[C@H]1COCCS(=O)(=O)N1Cc1ccc(Br)cc1 (some centres not stated)	-7	x	x	x	3	x	3952
O=C(c1ccco1)N1CCN(S(=O)(=O)c2cccc(Cl)c2)CC1	14	12	0	1.3	0	-2	2713
CCOC1OC(C(=O)Nc2ccccc2)=CC(c2coc3ccccc3c2=O)C1CCCO (configuration not stated)	x	5&-3	1&5	7.2&1.7	x	8&3	x
O=c1c(C=NNS(=O)(=O)c2ccccc2)coc2ccc(Cl)cc12	x	8	2	-5.8	x	-5	x
CN(C)S(=O)(=O)c1ccc(Cl)c(NC(=O)CN2C(=O)NC(C)(C3CC3)C2=O)c1 (configuration not stated)	-14	x	x	x	10	x	4198
CCOc1ccccc1C=NOCC(=O)NCc1ccc(F)cc1	x	-2	8	2.7	x	3	x
COc1ccc(OC)c(NC(=O)CSc2nnc(CNc3ccc(C)cc3C)o2)c1	-28	9	6	2.2	-7	-7	9799
CCOC(=O)N1CCN(C(=O)CN2C(=O)NC(C)(c3ccc4ccccc4c3)C2=O)CC1 (configuration not stated)	-2	-3	0	2.2	x	5	x
COC(=O)c1ccc(NC(=O)c2cc3c(CO)cnc(C)c3oc2=Nc2cccc(C(N)=O)c2)cc1	-18	9	-2	7.4	12	8	2910
Cc1ccc(-c2c(C(=O)NCc3ccc(F)cc3)oc(=O)c3ccccc23)cc1	-23	2	-1	-2.5	1	-3	2019
CC(Sc1nnc(Nc2ccccc2)s1)C(=O)NC1CCCc2ccccc21 (configuration not stated)	-31	12	7	-2.3	1	15	2187
COc1ccc(C2=NN(CC(=O)NCc3ccco3)C(=O)CC2)cc1	-16	3	-4	3.2	-5	3	2211
COc1ccc(NC(=O)CON=C(C)c2cccs2)cc1	x	16	2	1.8	x	4	x
CN(C)c1ccc(NC(=O)COC(=O)CCC(=O)c2ccc(F)cc2)cc1	-6	0	-3	5.2	-4	1	21300*
COc1cc(OC)nc(-n2ncc(Br)c(Br)c2=O)n1	-5	16	22	0.4	x	0	2587
Cc1ccc(-c2nc3ccccc3n3nnnc23)cc1	-14	x	x	x	1	x	6053
CCCCN(C)C(=O)C1CCN(CCCc2ccccc2)CC1	-24	6	-2	-3.5	4	7	5440
CC(C)c1ccc(O)c(NC(=O)c2cccnc2)c1	-23	-2	-8	23	4	-8	20393*
Cc1ccc(C)c(NC(=O)CSc2nnc(Cc3cccn3C)n2-c2ccc(F)cc2)c1	-11	x	x	3.0	-3	11	4915
Cc1ccccc1Cn1c2ccccc2c2cnn(CC(=O)NCCCN3CCOCC3)c(=O)c21	-13	2	5	-1.9	4	7	5182
COc1ccccc1C1NC(=O)NC(C)=C1C(=O)OC1CCC(C)CC1 (configuration not stated)	-19	-2	-3	-1.2	21	-8	4164

Complete entries as entered above. Order of values: PrP UTR inh, Mtb hypoxia rep, Mtb hypoxia rep growth, Sa RN4220 lethal, BJeLR viability, ugtP null kill, Autofluor counter
CC(Sc1nnc(Nc2ccccc2)s1)C(=O)NC1CCCc2ccccc21 (configuration not stated) is entered as -31, 12, 7, -2.3, 1, 15, 2187
Cc1ccc(C)c(NC(=O)CSc2nnc(Cc3cccn3C)n2-c2ccc(F)cc2)c1 is entered as -11, x, x, 3.0, -3, 11, 4915
O=c1c2ccccc2nc(-c2ccccc2)n1Cc1ccco1 is entered as -20, 0, 1, -0.6, 10, 2, 9635
O=C(c1ccco1)N1CCN(S(=O)(=O)c2cccc(Cl)c2)CC1 is entered as 14, 12, 0, 1.3, 0, -2, 2713
Cc1ccc2c(c1)[nH]c1c(N3CCN(Cc4ccccc4)CC3)ncnc12 is entered as -10, 6, 13, 12, 12, 22, 10392

Of the compounds above, three contain a furan ring, fused or not:
SMILES	PrP UTR inh	Mtb hypoxia rep	Mtb hypoxia rep growth	Sa RN4220 lethal	BJeLR viability	ugtP null kill	Autofluor counter
O=c1c2ccccc2nc(-c2ccccc2)n1Cc1ccco1	-20	0	1	-0.6	10	2	9635
O=C(c1ccco1)N1CCN(S(=O)(=O)c2cccc(Cl)c2)CC1	14	12	0	1.3	0	-2	2713
COc1ccc(C2=NN(CC(=O)NCc3ccco3)C(=O)CC2)cc1	-16	3	-4	3.2	-5	3	2211

Following part
SMILES	PrP UTR inh	Mtb hypoxia rep	Mtb hypoxia rep growth	Sa RN4220 lethal	BJeLR viability	ugtP null kill	Autofluor counter
CCCN(CCC)S(=O)(=O)c1ccc(C(=O)NNc2nc(-c3ccccc3)c3cc(Br)ccc3n2)cc1	-20	x	x	x	-3	x	2151
COC(=O)c1ccc(Nc2cc(C)nc3ccc(C)cc23)cc1	-21	13	2	2.2	14	9	5760
O=C(Nc1ccc(F)cc1)OCCN1CCN(Cc2ccccc2)CCC1=O	8	15	9	12	2	10	3857
N/C(=N\OC(=O)CCC1CCCC1)c1ccccc1	-45	2	-6	6.2	-1	16	3486
O=C1C(Cc2ccccc2)NC(=S)N1Cc1ccccc1 (configuration not stated)	-17	15	14	5.2	-2	6	2586
COc1ccc(-c2c(C#N)c(N)nc3c2CCCCCC3)cc1OC	-19	19	19	4.0	2	8	5625
COc1ccccc1CCNC(C)CCc1ccc(O)cc1 (configuration not stated)	-4	-3	4	2.1	-1	3	3551
COc1ccccc1NC(C)C(=O)N/N=C/c1ccccc1OCc1cccc(Br)c1 (configuration not stated)	-23	x	x	x	-10	x	2168
COc1ccccc1NC(=O)COC(=O)c1ccc2ccccc2n1	-18	7	-1	5.1	x	3	5742
Cc1nc2c(ccc3nc(NC(=O)Cc4cccc5ccccc45)sc32)s1	-25	x	x	x	-3	x	5383
CCOC(=O)N1CCN(C(=O)CCCN2C(=O)CSc3nc(C)cc(C)c32)CC1	-19	4	-3	-11	7	4	2573
CC(=O)c1c(C)[nH]c(C(=O)CSc2nnc(C)s2)c1C	-29	-6	-2	3.4	1	-2	4363
O=C(Nc1nc2ccccc2[nH]1)c1ccccc1O	-37	4	7	4.3	7	3	3765
CCOc1ccc(C2/C(=C(/O)c3ccc(S(=O)(=O)N4CCCCC4)cc3)C(=O)C(=O)N2CCCOC)cc1OC (configuration not stated)	-5	5	10	-0.4	2	4	5413
COc1ccc(N(C)C(=O)c2oc(=O)c3ccccc3c2-c2ccccc2)c(OC)c1	-13	-1	7	3.4	2	7	5001
Cc1nc2ccc(N=NN(C)C)cc2[nH]1	-18	3	-1	10	4	0	4966
O=c1[nH]c(Cc2ccccn2)nc2scc(-c3ccccc3Cl)c12	-12	6	7	3.8	4	-2	2953
CCc1cccc(NC(=O)CCCCCC2NC(=O)NC2C)c1 (configuration not stated)	5	8	2	1.3	-30	1	1687
CC(C)C(NC(=O)CSCc1ccc([N+](=O)[O-])cc1)C(C)C	-6	11	7	15	7	-4	2407
Cc1cccc(C)c1OCCCCN1CCNCC1	-26	9	17	4.1	-6	0	3388
CC(C)C(=O)Nc1nnc(S(=O)(=O)N(C)c2ccc(Cl)cc2)s1	-20	8	9	6.6	4	18	3766
Cc1ccc(/C=C/C(=O)Nc2ccc(Oc3ccccc3)cc2)o1	-7	1	3	-2.8	-1	-10	2543
Cc1nc(N2CCN(S(=O)(=O)c3ccccc3C#N)CC2)c2c(-c3ccccc3)csc2n1	-5	0	0	11	x	9	8115
Cc1cc(C)cc(N(CC(=O)NC(C)(C)C)C(=O)CNC(=O)c2cccs2)c1	-29	3	3	1.7	-2	5	4391
COc1cc(C(=O)NCCc2ccc(S(=O)(=O)N3CCCC3)cc2)cc(OC)c1OC	-19	-2	15	2.7	10	6	4089

Continuation.
SMILES	PrP UTR inh	Mtb hypoxia rep	Mtb hypoxia rep growth	Sa RN4220 lethal	BJeLR viability	ugtP null kill	Autofluor counter
CC(C)(C)Nc1nc2cc([N+](=O)[O-])ccc2o1	-14	-8	8	3.4	1	-5	4231
CSc1cccc(NC(=O)CN2C(=O)c3ccccc3S2(=O)=O)c1	5	x	x	6.3	-2	16	5249
CCOC1(OCC)C(c2ccc(N)cc2)C(C#N)(C#N)C1(OCC)OCC (configuration not stated)	-17	14	9	10	8	-4	8921
Cc1ccc(/C=C/S(=O)(=O)NCc2ccc(F)cc2)cc1	-30	0	6	12	-1	-8	3168
Cc1occc1-c1nnc(SCC(=O)N2CCN(c3ccc(F)cc3)CC2)n1C	-12	x	x	-0.7	12	6	4440
CCC(C(=O)NC1CC1)n1nc(C)c2c(C)n(-c3ccc(C)cc3)nc2c1=O (configuration not stated)	8	6	1	1.9	-1	7	4046
O=C(NN=Cc1ccccc1OC(=O)N1CCOCC1)c1cccs1	x	1	0	4.2	x	-1	x
CCCS(=O)(=O)C(=C(Nc1ccc(OC)cc1)Nc1ccc(OC)cc1)S(=O)(=O)CCC	-33	7	9	6.1	3	10	5709
Cc1ccc(CN(C(=O)c2ccccc2[N+](=O)[O-])C2CCS(=O)(=O)C2)o1 (configuration not stated)	-16	6	4	1.5	3	10	4726
COc1ccc(N2C(=O)CC(C)(C)CC2=O)cc1OC	-12	0	7	2.5	-3	1	3727
CC(C)C(=O)Nc1cc(C(F)(F)F)ccc1-n1ccnc1	-15	3	2	5.3	-2	8	4224
Cn1c(/C(C#N)=C(\O)c2cccc(F)c2)nc2ccccc21	-20	-7	-2	2.6	-6	2	2912
O=C(CN1C(=O)NC2(CCOc3ccccc32)C1=O)NCCc1ccc(F)cc1 (configuration not stated)	x	-1	7	-1.2	x	-1	5862
CCOC(=O)C1=C(c2ccccc2)NC(SCC(=O)Nc2ccccc2C)=C(C#N)C1c1ccco1 (configuration not stated)	-11	3	7	-0.6	-6	-9	5889
C=CCNC(=O)C(=O)c1c(-c2ccccc2)[nH]c2ccccc12	-54	-7	6	-8.3	6	-2	5759
Cc1ccc(C(C)C)c(OCC(=O)N2CCN(CC(=O)N3CCOCC3)CC2)c1	2	5	7	2.5	x	1	3254
COc1ccc(C2(C#N)CCC(=O)N2c2ccccc2)cc1 (configuration not stated)	-4	6	-4	2.7	1	9	4217
